# UUG fidelity = modulators of yeast start codon fidelity, primary screen, whole organism, S. cerevisiae, single point, plate reader | 0.13% of 350,000 active | S. cerevisiae UUG-firefly luciferase reporter, luminescence/redox ratio | activity score, % at 18.7 µM;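 active means replicate mean at a twofold rise or more, about +100% in these data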;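 further: firefly luciferase made from a UUG start codon reports start codon fidelity; reporter light over untreated wells divided by growth signal over untreated wells; some hits fall short of that in this replicate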
# Env fusion inh = inhibitors of HIV-1 Env-driven cell-cell fusion, primary screen, HeLa-JRFL effector, CEM21 target cells, luciferase | AID 651610, 2012 | inhibition, % at 12.3 µM | 1.1% of 360,000 active;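 active means mean replicate inhibition score of at least 50 and every replicate individually at or above 50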;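 further: 0% = plate neutral controls and 100% = maraviroc near 300 nM; one replicate is shown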
# Starred values were filed as active, the others as inactive; [ ] = remark or other dose. This is a subset, so the mix of outcomes need not match the whole.
SMILES,UUG fidelity,Env fusion inh
COc1ccc(S(=O)(=O)N[C@H]2C=C[C@@H](CC(=O)NCc3ccccc3F)O[C@H]2CO)cc1,18,7[16.7 µM]
Cc1ccc(-c2ccc3c(c2)O[C@H](CN(C)C(=O)Nc2ccccc2)[C@@H](C)CN([C@H](C)CO)S3(=O)=O)cc1,15,-5[16.7 µM]
O=C(N[C@H]1C=C[C@@H](CC(=O)N2CCCCC2)O[C@H]1CO)c1ccccn1,3,-8[16.7 µM]
O=C(C[C@@H]1CC[C@@H](NS(=O)(=O)c2ccc(F)cc2)[C@H](CO)O1)N1CCC(Cc2ccccc2)CC1,23,22[16.7 µM]
CC(C)CC#Cc1ccc2c(c1)O[C@@H](CN(C)Cc1ccc(F)cc1)[C@@H](C)CN([C@@H](C)CO)S2(=O)=O,3,34[16.7 µM]
C[C@@H]1CN([C@@H](C)CO)C(=O)c2cc(NC(=O)Nc3ccccc3)ccc2O[C@@H]1CN(C)Cc1ccncc1,-10,11[16.7 µM]
CN(C)CC(=O)N1[C@H](C#N)[C@@H](c2ccc(C#CC3CCCCC3)cc2)[C@H]1CO,3,-3[16.7 µM]
COCc1cn(CC[C@@H]2CC[C@H](NC(=O)Nc3ccc(F)cc3)[C@H](CO)O2)nn1,-8,-4[16.7 µM]
C[C@@H]1CN([C@H](C)CO)C(=O)c2cc(NC(=O)Nc3ccc4c(c3)OCO4)ccc2O[C@H]1CN(C)Cc1ccc(-c2ccccc2)cc1,3,17[16.7 µM]
C[C@@H]1CCCCO[C@@H](CN(C)Cc2ccncc2)[C@H](C)CN([C@H](C)CO)C(=O)c2cc(NS(=O)(=O)c3cccs3)ccc2O1,-5,-2[16.7 µM]
Cc1ccc(S(=O)(=O)N(C)C[C@H]2Oc3c(NC(=O)C4CCCCC4)cccc3C(=O)N([C@@H](C)CO)C[C@@H]2C)cc1,34,19[16.7 µM]
C[C@@H]1CN([C@@H](C)CO)S(=O)(=O)c2ccc(C#Cc3ccccc3F)cc2O[C@H]1CN(C)CC1CC1,0,6[16.7 µM]
CC(C)NC(=O)N[C@@H]1CC[C@@H](CC(=O)NC2Cc3ccccc3C2)O[C@@H]1CO,-14,3[16.7 µM]
C/C=C/c1cnc2c(c1)C(=O)N([C@H](C)CO)C[C@@H](C)[C@@H](CN(C)S(=O)(=O)c1ccccc1)O2,-8,8[16.7 µM]
CC(C)NC(=O)Nc1ccc2c(c1)C(=O)N(C)[C@@H]1CC[C@H](CC(=O)Nc3ccccc3)O[C@H]1CO2,1,13[16.7 µM]
C[C@@H]1CN([C@H](C)CO)C(=O)c2cc(NC(=O)CCC(F)(F)F)ccc2O[C@@H]1CN(C)C(=O)Nc1ccc2c(c1)OCO2,-18,32[16.7 µM]
C[C@H](O)C#Cc1ccc2c(c1)O[C@@H](CN(C)C(=O)Cc1ccccn1)[C@H](C)CN([C@H](C)CO)S2(=O)=O,-9,5[16.7 µM]
C[C@H]1CCCCO[C@@H](CN(C)C(=O)NC2CCCCC2)[C@@H](C)CN([C@@H](C)CO)C(=O)c2cc(NS(=O)(=O)c3cn(C)cn3)ccc2O1,3,17[16.7 µM]
C[C@@H]1CCCCO[C@H](CN(C)S(=O)(=O)c2ccc(Cl)cc2)[C@H](C)CN([C@@H](C)CO)C(=O)c2cc(NC(=O)CCC(F)(F)F)ccc2O1,-3,-22[16.7 µM]
C[C@@H]1CCCCO[C@H](CN(C)C(=O)Cc2ccccc2)[C@@H](C)CN([C@@H](C)CO)C(=O)c2cc(NS(=O)(=O)c3ccc(F)cc3)ccc2O1,-1,-13[16.7 µM]
O=C(C[C@H]1CC[C@@H](NS(=O)(=O)c2cccc(F)c2)[C@H](CO)O1)N1CCCCC1,-13,-2[16.7 µM]
C/C=C/c1cnc2c(c1)C(=O)N([C@@H](C)CO)C[C@@H](C)[C@@H](CN(C)S(=O)(=O)c1ccccc1F)O2,0,18[16.7 µM]
COCC#Cc1cnc2c(c1)C(=O)N([C@H](C)CO)C[C@@H](C)[C@@H](CN(C)C(=O)CN1CCOCC1)O2,31,2[16.7 µM]
Cc1noc(C)c1NC(=O)Nc1ccc2c(c1)C(=O)N([C@H](C)CO)C[C@H](C)[C@@H](CN(C)C(=O)c1ccccc1)OCCCC[C@@H](C)O2,6,2[16.7 µM]
C[C@@H]1CN([C@H](C)CO)C(=O)Cc2cc(NS(C)(=O)=O)ccc2O[C@@H]1CN(C)Cc1ccncc1,-6,7[16.7 µM]

# New compounds follow.
SMILES,UUG fidelity,Env fusion inh
C[C@@H]1CN([C@H](C)CO)C(=O)c2cc(NC(=O)C3CC3)ccc2O[C@H]1CN(C)CC1CCCCC1,-14,-36[16.7 µM]
COc1ccc(NC(=O)N(C)C[C@@H]2Oc3ncc(C#C[C@@H](C)O)cc3C(=O)N([C@@H](C)CO)C[C@H]2C)cc1,17,1[16.7 µM]
O=C(C[C@@H]1C=C[C@@H](NC(=O)C2CC2)[C@@H](CO)O1)NCCCN1CCOCC1,-11,-9[16.7 µM]
C[C@H](CO)N1C[C@H](C)[C@@H](CN(C)C(=O)C2CCC2)Oc2cc(C3=CCCCC3)ccc2S1(=O)=O,5,4[16.7 µM]
O=C(NCC[C@H]1CC[C@@H](NS(=O)(=O)Cc2ccccc2)[C@@H](CO)O1)C1CC1,3,-9[16.7 µM]
C[C@@H]1CN([C@@H](C)CO)C(=O)c2cc(NS(=O)(=O)c3cn(C)cn3)ccc2O[C@@H](C)CCCCO[C@@H]1CN(C)C(=O)NC1CCCCC1,4,20[16.7 µM]
C[C@@H](O)C#Cc1cnc2c(c1)C(=O)N([C@@H](C)CO)C[C@H](C)[C@H](CN(C)C(=O)c1ccncc1)O2,-18,-22[16.7 µM]
COCC(=O)Nc1ccc2c(c1)[C@H]1C[C@@H](CC(=O)N3CCN(C)CC3)O[C@H](CO)[C@H]1O2,-9,4[16.7 µM]
Cc1ccccc1-c1cnc2c(c1)C(=O)N([C@@H](C)CO)C[C@@H](C)[C@H](CN(C)C(=O)CN(C)C)O2,4,-27[16.7 µM]
CCCN(C)C[C@@H]1Oc2cc(C#CCOC)ccc2S(=O)(=O)N([C@@H](C)CO)C[C@@H]1C,5,3[16.7 µM]
C[C@@H]1CN([C@@H](C)CO)C(=O)c2cc(NS(=O)(=O)c3cccs3)ccc2O[C@@H](C)CCCCO[C@@H]1CN(C)Cc1ccncc1,0,-9[16.7 µM]
O=C(C[C@H]1C=C[C@H](NC(=O)CC2CC2)[C@H](CO)O1)NCc1ccc(Cl)cc1,-5,15[16.7 µM]
C[C@@H]1CCCCO[C@@H](CN(C)C(=O)Nc2ccc(F)cc2)[C@H](C)CN([C@@H](C)CO)C(=O)c2cc(NS(=O)(=O)c3ccc(Cl)cc3)ccc2O1,-11,-90[16.7 µM]
CCCNC(=O)N(C)C[C@@H]1Oc2cc(-c3ccccc3)ccc2S(=O)(=O)N([C@@H](C)CO)C[C@@H]1C,-3,-25[16.7 µM]
C/C=C/c1ccc2c(c1)O[C@H](CN(C)C(=O)c1ccc(F)cc1)[C@@H](C)CN([C@H](C)CO)S2(=O)=O,16,-48[16.7 µM]
C[C@@H]1CN([C@H](C)CO)C(=O)c2cc(NC(=O)Cc3ccccc3)ccc2O[C@H]1CN(C)C(=O)NC1CCCCC1,25,5[16.7 µM]
COC(=O)C[C@@H]1CC[C@H]2[C@@H](COc3ccc(NC(=O)c4cccc(F)c4)cc3C(=O)N2C)O1,4,4[16.7 µM]
Cc1ccc(S(=O)(=O)Nc2ccc3c(c2)C(=O)N([C@@H](C)CO)C[C@@H](C)[C@H](CN(C)S(=O)(=O)c2ccccc2)OCCCC[C@@H](C)O3)cc1,-8,-2[16.7 µM]
O=C(N[C@H]1CC[C@H](CCNS(=O)(=O)c2ccc(Cl)cc2)O[C@H]1CO)c1cnccn1,-1,8[16.7 µM]
CO[C@@H]1CN(C)C(=O)c2ccc(NS(C)(=O)=O)cc2OC[C@@H](C)N(C(=O)CN(C)C)C[C@H]1C,-13,5[16.7 µM]
O=C(C[C@H]1CC[C@@H](NC(=O)C2CCOCC2)[C@H](CO)O1)NCc1ccccc1Cl,6,23[16.7 µM]
Cc1ccc(S(=O)(=O)N[C@H]2CC[C@@H](CCn3cc(C4(O)CCCC4)nn3)O[C@@H]2CO)cc1,-4,1[16.7 µM]
O=C(NCC[C@H]1CC[C@@H](NC(=O)c2ccccc2F)[C@@H](CO)O1)c1ccc2c(c1)OCO2,-4,1[16.7 µM]
CC(C)NC(=O)Nc1ccc2c(c1)C(=O)N([C@H](C)CO)C[C@H](C)[C@H](CN(C)S(C)(=O)=O)OCCCC[C@@H](C)O2,33,-10[16.7 µM]
COc1ccc(S(=O)(=O)N(C)C[C@@H]2Oc3ccc(NC(=O)Nc4ccc5c(c4)OCO5)cc3CC(=O)N([C@H](C)CO)C[C@H]2C)cc1,-4,-13[16.7 µM]

# An excerpt of these results, field by field.
> COC(=O)C[C@@H]1CC[C@H]2[C@@H](COc3ccc(NC(=O)c4cccc(F)c4)cc3C(=O)N2C)O1
  UUG fidelity = 4
  Env fusion inh = 4[16.7 µM]

> Cc1ccc(S(=O)(=O)Nc2ccc3c(c2)C(=O)N([C@@H](C)CO)C[C@@H](C)[C@H](CN(C)S(=O)(=O)c2ccccc2)OCCCC[C@@H](C)O3)cc1
  UUG fidelity = -8
  Env fusion inh = -2[16.7 µM]

# (listing goes on)
SMILES,UUG fidelity,Env fusion inh
COc1ccc(NC(=O)Nc2ccc3c(c2)C(=O)N([C@@H](C)CO)C[C@H](C)[C@H](CN(C)CC2CCCCC2)O3)cc1,4,17[16.7 µM]
CCCNC(=O)C[C@@H]1C[C@@H]2c3cc(NC(=O)Cc4ccncc4)ccc3O[C@@H]2[C@@H](CO)O1,6,93*[16.7 µM]
Cc1ccc(S(=O)(=O)Nc2ccc3c(c2)C(=O)N([C@@H](C)CO)C[C@@H](C)[C@@H](CN(C)C(=O)NC2CCCCC2)OCCCC[C@@H](C)O3)cc1,13,-63[16.7 µM]
Cc1ccc(S(=O)(=O)Nc2ccc3c(c2)C(=O)N([C@@H](C)CO)C[C@@H](C)[C@@H](CN(C)C(=O)Nc2c(C)noc2C)OCCCC[C@@H](C)O3)cc1,-9,-10[16.7 µM]
CC(C)C#Cc1cnc2c(c1)C(=O)N([C@H](C)CO)C[C@@H](C)[C@@H](CN(C)C(=O)Nc1ccccc1F)O2,16,6[16.7 µM]
C[C@@H]1CN([C@@H](C)CO)S(=O)(=O)c2ccc(C#CC3(O)CCCC3)cc2O[C@@H]1CN(C)C(=O)c1ccccc1,11,-1[16.7 µM]
CCS(=O)(=O)Nc1ccc2c(c1)C(=O)N(C)[C@@H]1CC[C@H](CC(=O)N3CCCCC3)O[C@@H]1CO2,7,-5[16.7 µM]
COc1ccc(CN(C)C[C@H]2OCCCC[C@H](C)Oc3ccc(NS(=O)(=O)c4c(C)noc4C)cc3C(=O)N([C@@H](C)CO)C[C@@H]2C)cc1,5,0[16.7 µM]
Cc1ccc(S(=O)(=O)Nc2ccc3c(c2)CC(=O)N([C@H](C)CO)C[C@H](C)[C@H](CN(C)Cc2ccc(C(=O)Nc4ccccc4N)cc2)O3)cc1,6,-38[16.7 µM]
COc1ccc(CN(C)C[C@@H]2OCCCC[C@@H](C)Oc3ccc(NS(=O)(=O)c4ccc(Cl)cc4)cc3C(=O)N([C@@H](C)CO)C[C@H]2C)cc1,24,8[16.7 µM]
Cc1cc(C(=O)Nc2cccc3c2O[C@H](CN(C)S(C)(=O)=O)[C@H](C)CN([C@@H](C)CO)C3=O)n(C)n1,27,6[16.7 µM]
Cc1noc(C)c1S(=O)(=O)N(C)C[C@H]1OCCCC[C@H](C)Oc2ccc(NS(=O)(=O)c3ccc(F)cc3)cc2C(=O)N([C@@H](C)CO)C[C@@H]1C,12,26[16.7 µM]
CC(C)CC#Cc1ccc2c(c1)O[C@@H](CN(C)Cc1cccnc1)[C@H](C)CN([C@H](C)CO)S2(=O)=O,-13,24[16.7 µM]
C[C@@H]1CN([C@H](C)CO)C(=O)Cc2cc(NC(=O)Nc3cccc4ccccc34)ccc2O[C@H]1CN(C)CC1CCCCC1,2,-14[16.7 µM]
C[C@H]1CN([C@@H](C)CO)S(=O)(=O)c2ccc(-c3ccccc3)cc2O[C@@H]1CN(C)C,9,-5[16.7 µM]
CC(C)NC(=O)NCC[C@H]1CC[C@H](NC(=O)c2ccc(F)cc2)[C@H](CO)O1,-12,-4[16.7 µM]
C[C@H]1CCCCO[C@H](CN(C)C(=O)c2ccncc2)[C@@H](C)CN([C@@H](C)CO)C(=O)c2cc(NS(=O)(=O)c3ccc(Cl)cc3)ccc2O1,15,-6[16.7 µM]
C[C@@H]1CN([C@@H](C)CO)C(=O)Cc2cc(N(C)C)ccc2O[C@H]1CN(C)CC1CCCCC1,5,13[16.7 µM]
C[C@H](CO)N1C[C@H](C)[C@H](CN(C)Cc2ccccc2)Oc2ccc(N(C)C)cc2CC1=O,-12,7[16.7 µM]
COc1cccc(NC(=O)N(C)C[C@@H]2Oc3cc(-c4cccc(C(=O)N(C)C)c4)ccc3S(=O)(=O)N([C@@H](C)CO)C[C@@H]2C)c1,-12,-13[16.7 µM]

# Five structures already listed, sorted by molecular weight, falling.
SMILES,UUG fidelity,Env fusion inh
Cc1noc(C)c1S(=O)(=O)N(C)C[C@H]1OCCCC[C@H](C)Oc2ccc(NS(=O)(=O)c3ccc(F)cc3)cc2C(=O)N([C@@H](C)CO)C[C@@H]1C,12,26[16.7 µM]
C[C@@H]1CN([C@H](C)CO)C(=O)Cc2cc(NC(=O)Nc3cccc4ccccc34)ccc2O[C@H]1CN(C)CC1CCCCC1,2,-14[16.7 µM]
C[C@@H]1CN([C@@H](C)CO)S(=O)(=O)c2ccc(C#CC3(O)CCCC3)cc2O[C@@H]1CN(C)C(=O)c1ccccc1,11,-1[16.7 µM]
CC(C)C#Cc1cnc2c(c1)C(=O)N([C@H](C)CO)C[C@@H](C)[C@@H](CN(C)C(=O)Nc1ccccc1F)O2,16,6[16.7 µM]
CCCNC(=O)C[C@@H]1C[C@@H]2c3cc(NC(=O)Cc4ccncc4)ccc3O[C@@H]2[C@@H](CO)O1,6,93*[16.7 µM]
